# Sa helicase inh = S. aureus DNA helicase inhibition | inhibition, %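 (tested at about 80 µM)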 | 120,000 compounds, 0.05% hits | purified S. aureus helicase, fluorescence unwinding assay; about half of the hits fall short of the stated cut;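 active means both duplicates at 50% or more, or one of them with a favoured structure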;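 further: 0% = mean of negative control wells and 100% = mean of positive control wells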
# MgrA DNA FP = modulators of Staphylococcus aureus MgrA DNA binding; 84,000 compounds, 0.13% hits; fluorescence polarization; inhibition, %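 (about 10 µg/mL by stock and volumes)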; AID 602314;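 active means above 50% in either of two replicates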;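 further: 0% = protein plus DNA without compound and 100% = DNA alone without protein; higher means less MgrA bound to DNA so lower polarization; one replicate is shown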
# The depositor's hits bear a star; nt = no result given.
SMILES,Sa helicase inh,MgrA DNA FP
O=S1(=O)C=C(N2CCCC2)c2ccccc21,-9.0,5.2
CN(C)c1ccc(-c2nc(-c3ccccc3)c(-c3ccc(O)cc3)[nH]2)cc1,5.0,nt
CCc1ccc(OCc2nnc(SCCC#N)n2C(C)c2ccccc2)cc1 (stereo not drawn),7.0,nt
Cc1ccc(CC(=O)NCC(c2ccco2)N(C)C)cc1C (stereo not drawn),-13.0,nt
Cc1[nH]c(=O)[nH]c(=O)c1S(=O)(=O)NCC1CCCO1 (stereo not drawn),6.0,nt
O=C(COC(=O)Cc1ccsc1)Nc1ccc(Cl)c(C(F)(F)F)c1,9.0,-0.4
N#CC1(CN2C(=O)C3(OCCO3)c3ccccc32)CC=CCC1 (stereo not drawn),nt,-2.4
CC(=O)O[C@@H]1CC2C(C)(C)C(=O)C=C[C@]2(C)C2CC[C@@]3(C)[C@H](c4ccoc4)OC(=O)[C@H]4O[C@]43[C@@]21C (stereo partly drawn),nt,0.8
CSc1ccc(/C=N/n2c(=O)oc3ccccc3c2=O)cc1,nt,0.4
CC1(C)OC(=O)C(=Cc2cc(Br)c(O)c(Br)c2)C(=O)O1,-12.0,nt
CN(C)S(=O)(=O)c1cccc(COC(=O)C2=COCCO2)c1,-9.0,nt
CCOC(=O)[C@@H]1CSC2C3SC[C@@H](C(=O)OCC)N3CCN21 (stereo partly drawn),-14.0,nt
CC(C)(C)C(=O)OC/C(N)=N/OC(=O)c1ccccc1,nt,-0.6
C=CCN1C(=O)/C(=C\c2ccc(Oc3ccc([N+](=O)[O-])cc3[N+](=O)[O-])c(OC)c2)SC1=S,nt,3.7
Cc1ccc(CC2C(=O)N(c3cccc(C(F)(F)F)c3)C(=O)C2C)cc1 (stereo not drawn),-11.0,-0.7
CCOc1ccc(CCNS(=O)(=O)c2ccc3c(c2)CCN3C(=O)C2CC2)cc1OCC,13.0,0.6
CCn1nnc2cc(C(=O)Nc3ccc(S(=O)(=O)C(F)F)cc3)ccc21,-11.0,nt
CN(C)C1(CNC(=S)NCc2ccccc2)CCCCC1,-10.0,nt
Cc1cc(C)c2[nH]c(=O)c(CN(CCCO)C3(c4nnnn4C4CCCC4)CCCC3)cc2c1,-4.0,2.5
O=C(CC12CC3CC(CC(Br)(C3)C1)C2)NC1CCCC1,16.0,-0.1
O=S(=O)(c1ccccc1)N1CCN(CC2CC=CCC2)CC1 (stereo not drawn),13.0,-2.4
CN(CC(=O)NC(=O)NC1CCCCC1)Cc1nc2ccccc2c(=O)[nH]1,0.0,nt
Cc1sc2ncnc(Sc3nnc(-c4cccs4)n3CC3CCCO3)c2c1C (stereo not drawn),6.0,nt
COc1ccc(C(=O)N2CCSC2=S)cc1,21.0,nt
CCCN(S(=O)(=O)c1ccccc1F)S(=O)(=O)c1ccccc1Br,10.0,nt

# Reprinted at random: 4 records from the list.
SMILES,Sa helicase inh,MgrA DNA FP
CN(C)S(=O)(=O)c1cccc(COC(=O)C2=COCCO2)c1,-9.0,nt
CN(C)C1(CNC(=S)NCc2ccccc2)CCCCC1,-10.0,nt
O=C(CC12CC3CC(CC(Br)(C3)C1)C2)NC1CCCC1,16.0,-0.1
CCc1ccc(OCc2nnc(SCCC#N)n2C(C)c2ccccc2)cc1 (stereo not drawn),7.0,nt

# Remaining list, next part.
SMILES,Sa helicase inh,MgrA DNA FP
O=C(CSc1nc2ccccc2[nH]1)Nc1ccc(OC(F)(F)F)cc1,1.0,-0.7
Cc1ccc(Sc2ccc(C(=O)O)cc2[N+](=O)[O-])cc1,nt,-1.4
Cc1csc(NCc2cccnc2)[n+]1C,nt,-2.4
CSc1cc(C(C)(C)C)nn1C(=O)Nc1ccccc1,nt,0.4
Cn1cccc1/C=C1\SC(=S)NC1=O,4.0,3.7
N#Cc1cccc(-n2cccc2)c1,nt,1.3
CC1CCCN(CC(O)COCCC23CC4CC(CC(C4)C2)C3)C1 (stereo not drawn),-8.0,nt
Cc1cccc(C)c1NC(=O)NC1(C(=O)N2CCCCC2)CCCCC1,-3.0,0.9
O=C(Nc1ccc(S(=O)(=O)N2CCCCC2)cc1)C(F)(F)F,-2.0,0.1
Cc1oc(C(C)(C)C)cc1C(=O)Nc1cccc(C(=O)O)c1,-40.0,nt
NC(=O)COC(=O)/C=C/c1cccs1,18.0,2.0
O=C(Cn1cnc2ccc(Cl)cc2c1=O)c1ccc[nH]1,-15.0,nt
Cc1ccc(-n2cnnc2)cc1,3.0,1.8
COc1ccc(C=NC23CC4CC(CC(C4)C2)C3)cc1,23.0,-3.7
OCC1(CO)COC2(CCCCC2)N1,0.0,-6.5
CCN(CC)c1ccc2cc(C(N)=O)c(=Nc3ccc(C(F)(F)F)cc3)oc2c1,nt,-0.6
N#Cc1c(-c2ccc(Cl)cc2Cl)c(C#N)c(=O)n(N)c1N,-6.0,2.5
CCCCn1c2ccc(F)cc2c2nnc(NN)nc21,21.0,nt
Cc1c(-c2ccccc2)sc2nc[nH]c(=O)c12,nt,-0.3
O=C(CSc1nn(-c2ccc(F)cc2)c(=S)s1)N1CCN(C(=O)c2ccco2)CC1,-7.0,nt
O=C(OCN1C(=O)c2ccccc2C1=O)c1ccc2c(c1)OCCO2,12.0,nt
O=C(c1cc2c(s1)CCCC2)N1CCN(c2ccccc2)CC1,-18.0,1.0
Cc1cccc(OCC(=O)Nc2cccc(-c3nc4ncccc4o3)c2)c1,4.0,-3.3
CCCN1C(=O)/C(=c2\sc3nc(-c4ccccc4)nn3c2=O)c2ccccc21,19.0,nt
CN(CC(=O)N1CCCC1=O)Cc1ccccc1,14.0,-5.2

# More structures follow.
SMILES,Sa helicase inh,MgrA DNA FP
CCSc1nnc(-c2c[nH]c3ccccc23)n1-c1ccc(OC)cc1,5.0,nt
CC(=O)N(C)Cc1nc2ccccc2[nH]1,-27.0,nt
CCOC(=O)c1c(C)n(-c2ccccc2)c2c1cc(OC(=O)c1ccc(F)cc1)c1ccccc12,nt,-0.3
O=C(COc1ccccc1)NCCc1nc2ccccc2n1Cc1ccccc1,11.0,0.8
Cc1cc(N2CCC(C)CC2)nc2ccc(NC(=O)c3ccc4c(c3)OCO4)cc12,2.0,-0.6
Cc1sc2ncn(CC(=O)N3CCC(C)CC3)c(=O)c2c1C,1.0,2.6
C=CCN(CC=C)C(=O)C1CCC(C(=O)N(CC=C)CC=C)CC1 (stereo not drawn),6.0,2.8
O=C1CCCc2nc(N3CCN(c4ccccc4)CC3)ncc21,0.0,3.0
CCN1CCCC1CNC(=O)C(NC(=O)C1CCC(C)CC1)C(C)C (stereo not drawn),-16.0,nt
Cc1cc(C2=CSC3=NCCN23)ccc1Cl,nt,-1.1
CS(=O)(=O)c1ccccc1C(=O)Nc1nccs1,5.0,nt
CCNC(=O)CSc1ccc2ccccc2c1,-3.0,nt
CC(C)CN=CC1=C(O)c2ccccc2C1=O,10.0,2.0
CC1(N(O)C=C2C=CC(=O)C=C2)CCCCC1=O (stereo not drawn),nt,2.4
Cc1ccc(C(=O)CCC(=O)Nc2ccc(Br)c(C)c2)cc1,4.0,-2.4
CC1CCCN(C(=O)CSCC(=O)N=c2sc3ccccc3n2C)C1 (stereo not drawn),2.0,nt
CCCN(CC(=O)Nc1ccccc1C)C(=O)CSc1ccc(S(=O)(=O)N2CCOCC2)cn1,11.0,nt
CCS(=O)CCSc1nc(-c2ccc(Br)cc2)cc(-c2ccccc2)c1C#N (stereo not drawn),-11.0,1.9
CC1CCN(S(=O)(=O)c2ccc(NC(=O)c3ccc4c(c3)OCCO4)cc2)CC1,5.0,-0.8
CN(C(=O)c1cc2c(=O)oc3ccccc3c2s1)c1ccccc1Cl,6.0,-0.6
CC1=C(C)CS(=NC(=O)c2ccccc2)N(C(=O)c2ccccc2)C1 (stereo not drawn),1.0,6.8
CN(C)C=NC(=O)c1cccc(Br)c1,6.0,nt
CC(CC(=O)NCCN1C(=O)S/C(=C\c2cccs2)C1=O)n1ccnc1 (stereo not drawn),-6.0,nt
C=CCn1c(=NC(=O)CC)sc2cc(S(N)(=O)=O)ccc21,1.0,nt
Cc1ccc(C2=CC(=O)C=CC2=O)cc1C,-16.0,nt

# 3 compounds already listed, sorted by their value in Sa helicase inh, descending.
SMILES,Sa helicase inh,MgrA DNA FP
CCSc1nnc(-c2c[nH]c3ccccc23)n1-c1ccc(OC)cc1,5.0,nt
C=CCn1c(=NC(=O)CC)sc2cc(S(N)(=O)=O)ccc21,1.0,nt
CC(=O)N(C)Cc1nc2ccccc2[nH]1,-27.0,nt

# The listing picks up; the two compounds before the break are reprinted first.
SMILES,Sa helicase inh,MgrA DNA FP
C=CCn1c(=NC(=O)CC)sc2cc(S(N)(=O)=O)ccc21,1.0,nt
Cc1ccc(C2=CC(=O)C=CC2=O)cc1C,-16.0,nt
CN=c1scc(-c2cc(C)n(CC3CCCO3)c2C)n1C (stereo not drawn),-4.0,nt
Cc1ccc(NC(=O)CC(C(=O)O)N(C)C)cc1 (stereo not drawn),26.0,-2.2
N/C(=N\c1nc2ccccc2s1)NC(=O)c1ccccc1N,-13.0,-1.0
CCCN=C1NN=C(c2cc(C)n(Cc3ccc4c(c3)OCO4)c2C)CS1,-6.0,nt
Cc1[nH]c2ccccc2c1C(=O)CN1C(=O)C2CC=CCC2C1=O (stereo not drawn),-2.0,nt
COc1cccc(/C=C2\SC(=S)C(N)C2=O)c1OC (stereo not drawn),-20.0,nt
Cc1ccc(S(=O)(=O)Oc2ccc(C)cc2Br)cc1,nt,1.2
O=C(CSc1nnc(-c2cccs2)o1)NC1CCCCC1,18.0,nt
CCc1cc(=O)[nH]c(NC2CCN(C(=O)N3c4ccccc4Sc4ccccc43)CC2)n1,5.0,-1.4
CCc1ccc(C(=O)OCC(N)=O)cc1,0.0,nt
CCOc1ccc(-n2nnnc2-c2ccccn2)cc1,-18.0,nt
O=C1CCCN1CC(CN1CCOCC1)Sc1nnnn1-c1ccccc1 (stereo not drawn),3.0,2.9
CCCCN(CC)C(=O)Cc1c(C(=O)O)[nH]c2ccc(Cl)cc12,-3.0,nt
COc1cc(C2CS(=O)(=O)CS(=O)(=O)C2)ccc1O,15.0,0.1
FC(F)(F)c1nc(NCC(c2ccco2)N2CCCCC2)c2ccccc2n1 (stereo not drawn),8.0,nt
CC(=O)NC(CCC(=O)O)C(=O)O (stereo not drawn),nt,-4.3
NS(=O)(=O)c1cc(C(=O)Nc2cccc(C(F)(F)F)c2)ccc1F,10.0,nt
COc1cccc(N=Cc2c[nH]c3ccccc23)c1,14.0,12.6
CC1=C(c2ccc(C)cc2)S(=O)(=O)NC1=NCCN1CCOCC1,27.0,nt
N#Cc1c(-c2ccccc2)noc1/C=C/Nc1ccccc1,nt,0.6
Cc1ccc(NC(=O)C(C)Sc2n[nH]c(-c3ccccc3O)n2)cc1 (stereo not drawn),3.0,0.4
CC(C(=O)Nc1ccc2c(c1)OCCO2)n1cc(S(=O)(=O)N2CCCC2)ccc1=O (stereo not drawn),-1.0,nt
CSc1ccccc1NC(=O)COC(=O)C12CC3CC(CC(C3)C1)C2,-14.0,-1.1
CC(=O)O/N=C/c1c(Nc2ccc(C)cc2)nc2c(C)cccn2c1=O,10.0,nt
Cc1ccccc1NC(=O)COc1cccc(Br)c1,-29.0,-1.1

# Next part:
SMILES,Sa helicase inh,MgrA DNA FP
CN(C)CCCNc1cccc(Cl)c1C#N,nt,4.7
CCOC(=O)C1CCCN(S(C)(=O)=O)C1 (stereo not drawn),1.0,0.5
COc1ccc(CCn2c(C)c3c(=O)n(-c4nc5ccccc5s4)[nH]c3cc2=O)cc1,9.0,7.5
COc1cccc(OC)c1OC(=O)C(C)Oc1ccc(C)cc1 (stereo not drawn),5.0,nt
CCSc1cnn(-c2ccccc2)c(=O)c1Cl,nt,2.4
Cc1ccc(CN2CCN(/N=C\C=C\c3ccccc3)CC2)cc1,-10.0,2.3
O=C(Nc1ccccc1C(=O)NC1CCCC1)c1cn2ccccc2n1,-3.0,nt
CCOC(=O)c1ccc(N(C)C)c2c(N(C)C)cccc12,-6.0,-0.9
COc1ccc(-n2nc(C(=O)NCC(=O)NC3CCCCCC3)c3ccccc3c2=O)cc1Cl,-7.0,0.4
CN(CC(=O)Nc1ccc(F)c(F)c1F)C(=O)c1cccc(C(F)(F)F)c1,-1.0,nt
CC(=O)C1=CN=C(c2ccc(Cl)cc2)SC1,nt,-1.2
S=c1cc[nH]c(=S)n1-c1nc(-c2ccccc2)sc1-c1ccccc1,12.0,5.3
CCc1cccc(NC(=O)/C=C/c2ccco2)c1,-1.0,11.9
O=C(Oc1ccc2c(c1)OCO2)c1cccc(S(=O)(=O)N2CCCC2)c1,0.0,-2.4
CCOC(=O)c1c(O)c(Cl)c(C)[nH]c1=O,15.0,-4.5
CNC(=O)NC(=O)C(Sc1nnc2sc3ccccc3n12)c1ccccc1 (stereo not drawn),20.0,nt
COc1cccc(C2CC(C(F)(F)F)n3ncc(C(=O)O)c3N2)c1 (stereo not drawn),13.0,-1.9
Cc1ccc(C)n1-c1nnc(N2CCC(C(=O)O)CC2)s1,-12.0,nt
Cc1ccccc1NC1=NC2(CCCCC2)N=C(N)N1,3.0,1.6
Cc1cc(N)n2ncnc2n1,2.0,-1.6
CCOC(=O)C1CCN(C(=O)c2ccccc2)CC1,nt,-2.9
COC(=O)c1cn(-c2ccccc2)nc1-c1cccs1,-5.0,nt
O=C(CN1C2=NCCN2c2ccccc21)C12CC3CC(CC(C3)C1)C2,13.0,0.1
O=C(Cn1c(=O)c2sccc2n(Cc2cccc(Cl)c2)c1=O)NCc1ccco1,4.0,-1.4
O=S(=O)(Nc1ccccc1Oc1ccc(Cl)cc1Cl)c1ccc(Cl)c(Cl)c1,nt,-2.3
CCOC(=O)C1=C(O)/C(=C\c2ccccc2)N=C1C,13.0,-2.3
COc1ccccc1N1CCN(c2ncnc3nc[nH]c23)CC1,0.0,nt
Cc1ccccc1CN(Cc1ccco1)C(=O)c1cc2ccccc2oc1=O,15.0,-0.2
CC(=O)OC1(C#CCN2CCCC[C@H]2c2cccnc2)CCCCC1,11.0,nt
O=C(Nc1cccnc1)c1cn(-c2ccccc2)nc1-c1cccs1,13.0,nt

# High-throughput results: PubChem, ICCB-Longwood Screening Facility, Harvard Medical School

# A portion of the library (hit frequency here may not be typical).
